Bioassay records from PubChem.
gsp ag: activates gsp, the McCune-Albright syndrome mutation | actives 0.13% (n = 340,000) | Potency, µM (titrated, usually from 76.9 µM), inactives show at the top dose activation (cAMP increase), most hits filed as activators | gsp mutant cells, cAMP HTRF, 30 min; control for the full effect not named in the record; active = well fitted activation curve with a large enough effect; inconclusive = small, poorly fitted or top-dose-only effect, or another doubt; inactive = no such curve, though single readings can be large or run the other way; cell line not stated here;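 further: phosphodiesterase inhibitor Ro 20-1724 added with compounds to block cAMP breakdown; potency means the concentration at half of the fitted maximal effect; nearly all actives have a fitted effect of over 60% in size; about a fifth of the inactives were tested at one dose only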
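Cells stably selected in G418 were plated at 2000/well, grown 16-24 hr, then given compounds in DMSO with the PDE inhibitor […] (300 uM solution added) for 30 min at 37C; cAMP was read by HTRF.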
Menin-MLL FL inh: displaces fluorescein MLL peptide from human menin | 290,000 tested, under 10 active | Fluorescence polarization, fluorescein-MLL peptide displacement from menin | AID 1766 | FP activity change, % at 61.4 µM; inconclusive = falling polarisation curve, or a change in total fluorescence; inactive = total fluorescence flat and polarisation flat or rising; no compound was filed as active; the % refers to the polarisation; negative = inhibition;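 further: % of control where 0% means no effect; inhibitors lower the polarisation; unlabelled MLL peptide was the positive control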
CtBP-E1A inh: blocks the CtBP interaction with E1A. activity change, % (test concentration not listed). actives 0.49% (n = 340,000). AID 651724. AlphaScreen GST-E1A/His-CtBP binding, 1536-well; hits give low values; control for the full effect not named in the record; in the data active means activity change below about -65%; inconclusive means about -30% to -65%; inactive means above about -30%; further: on the % scale 0 is the no-effect control and ±100 the full control effect; compound concentration not given in the record
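Protein mix (5X: 125 nM each GST-E1A, His-CtBP) was incubated with pinned compound 2 h at 37 deg C in dark, in 50 mM Tris pH 8.0 buffer with 300 mM NaCl. Glutathione donor and nickel acceptor beads followed; AlphaScreen signal read after 1 h.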
TRPV1 PAM: human TRPV1 potentiation. TRPV1-expressing cells, Fluo-8 calcium influx, capsaicin EC20 potentiation; host cell line not named in the record; control for the full effect not named in the record. actives 0.02% (n = 320,000). Q8NER1. potentiation, % at 8.33 µM; active means potentiation above 80%; inconclusive means 30% to 80%; inactive means below 30%; further: 0% is about no effect
Target sequence (Q8NER1 whole entry, looked up): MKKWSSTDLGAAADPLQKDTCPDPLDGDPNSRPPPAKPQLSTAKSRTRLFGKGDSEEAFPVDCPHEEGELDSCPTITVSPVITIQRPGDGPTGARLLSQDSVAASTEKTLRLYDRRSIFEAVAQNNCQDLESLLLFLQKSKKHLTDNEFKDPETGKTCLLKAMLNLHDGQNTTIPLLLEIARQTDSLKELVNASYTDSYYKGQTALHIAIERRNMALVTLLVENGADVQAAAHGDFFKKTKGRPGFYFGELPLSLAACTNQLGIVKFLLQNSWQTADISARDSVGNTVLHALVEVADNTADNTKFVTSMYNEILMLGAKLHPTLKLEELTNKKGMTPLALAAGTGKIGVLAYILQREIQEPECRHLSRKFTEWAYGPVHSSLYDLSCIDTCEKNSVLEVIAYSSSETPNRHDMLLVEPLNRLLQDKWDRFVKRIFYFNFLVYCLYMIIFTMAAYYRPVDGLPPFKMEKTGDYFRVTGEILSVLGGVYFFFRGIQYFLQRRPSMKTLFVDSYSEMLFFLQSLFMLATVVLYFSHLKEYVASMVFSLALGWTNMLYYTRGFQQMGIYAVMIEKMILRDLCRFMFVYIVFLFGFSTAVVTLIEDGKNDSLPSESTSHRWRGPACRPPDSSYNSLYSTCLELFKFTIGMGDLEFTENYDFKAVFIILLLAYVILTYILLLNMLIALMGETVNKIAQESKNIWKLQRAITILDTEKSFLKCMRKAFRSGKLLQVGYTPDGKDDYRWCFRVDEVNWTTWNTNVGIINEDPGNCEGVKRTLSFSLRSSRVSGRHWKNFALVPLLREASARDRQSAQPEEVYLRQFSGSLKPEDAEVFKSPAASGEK
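Cells expressing TRPV1 were dye-loaded with Fluo-8 and read kinetically: 10 s baseline, 3 min after compound (agonist portion), then 2 min after EC20 capsaicin (allosteric enhancer portion). Calcium-bound dye fluorescence at 480/520 nm.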
Sfp inh: Sfp phosphopantetheinyl transferase inhibition; Q9F4F7; Biochemical Sfp PPTase activity, qHTS; Potency, µM, inactives show max response, negative = inhibition, actives largely listed as inhibitors; actives 3.5% (n = 310,000); AID 1490; active means well fitted inhibition curve with a large enough effect; inconclusive means small, poorly fitted or top-dose-only effect, or another doubt; inactive means no such curve, though single readings can be large or run the other way;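 further: the enzyme is Sfp with the accession as filed and its product quenches rhodamine fluorescence; potency means the concentration at half of the fitted maximal effect; 0% = enzyme reaction without inhibitor and -100% = no enzyme wells; top concentration of the series not given in the record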
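Compounds were incubated with enzyme (final 15 nM) for 15 min at room temperature before substrate addition started the reaction. Fluorescence at 525 nm excitation, 598 nm emission was recorded immediately and after 30 minutes.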
ClpP mod: qHTS Assay for Activators of ClpP; ATP-dependent Clp protease proteolytic subunit (Bacillus subtilis (strain 168)), P80244; purified B. subtilis ClpP, FRET peptide cleavage, 20 min; Potency, µM (series often up to 57.5 µM), inactives show top-dose activity change, negative = active; actives 1.9% (n = 340,000); AID 651965, 2013; active = well fitted falling curve with a large enough effect; inconclusive = small, poorly fitted or top-dose-only effect; inactive = no such curve, though single readings can be large or run the other way; further: potency means the concentration at half of the fitted maximal effect; the source files actives as falling curves though it sought activators and does not explain the sign; nearly all actives have a fitted effect of over 65% in size; many hits overshoot -100%
Target sequence (P80244 whole entry, looked up): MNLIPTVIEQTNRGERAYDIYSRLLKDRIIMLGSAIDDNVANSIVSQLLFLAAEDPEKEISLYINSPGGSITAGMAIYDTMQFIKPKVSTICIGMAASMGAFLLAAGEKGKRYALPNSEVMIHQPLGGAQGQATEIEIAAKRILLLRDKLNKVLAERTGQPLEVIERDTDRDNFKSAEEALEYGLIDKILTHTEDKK
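Purified B. subtilis ClpP, 10 microg/mL final in Tris/HCl pH8 with KCl, BSA, glycerol and Tween-20, cleaved an Abz/nitrotyrosine-quenched decapeptide. Fluorescence (ex 320, em 430) was read at 0 and 20 min at room temperature. Delta was normalized to 5.8 microM ADEP and DMSO/no-enzyme controls.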
gsp antagonist: antagonizes gsp, the McCune-Albright syndrome mutation; gsp-mutant cells, cAMP HTRF, 30 min; control for the full effect not named in the record; Potency, µM (series often up to 76.9 µM), for inactives: top-dose activity change, negative = inhibition, hits mostly inhibitors; actives 0.4% (n = 340,000); active = falling curve of any shape with a large fitted effect; inconclusive = falling curve, mostly with a smaller effect; inactive = flat or rising curve; cell line not stated here;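 further: intracellular cAMP measured with PDE inhibitor Ro 20-1724 present during compound exposure; potency means the concentration at half of the fitted maximal effect; on the % scale 0 is the no-effect control and ±100 the full control effect; nearly all actives have a fitted effect of over 65% in size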
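Cells in G418 medium, seeded 16-24 h, 37C; buffer exchange to DPBS + 1 mM CaCl2, 0.5 mM MgCl2, 0.05% BSA; cpds in DMSO + […] (300 uM stock), 30 min 37C; HTRF cAMP detection.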
The depositor's hits bear a star; ? = inconclusive; / = no result given; [ ] = remark or other dose. This is a random part of the collection. About 5.3% of those tested had a hit in this group.

The line under a structure holds: CtBP-E1A inh	gsp antagonist	Menin-MLL FL inh	ClpP mod	gsp ag	Sfp inh	TRPV1 PAM
1: Cc1onc(-c2ccccc2Cl)c1C(=O)N1CCCCC1C(=O)O (stereo not drawn)
    -1	5%	-0.8	0.6%	12%	7%	1
2: CCCCCCCNC(=O)C1(CC2CC(c3cccc(Br)c3)=NO2)CCNCC1 (stereo not drawn)
    0	0%	-0.3	1.1%	/	?	-1
3: O=[N+]([O-])c1ccc(-c2cnc(SC(c3ccccc3)c3ccccc3)[nH]2)cc1
    -20	35µM*	1.3	0.0%	-6%[15.4 µM]	39%[activator]	2
4: COC(=O)C/C=C/[C@@H](C)[C@@H](/C=N/O[C@@H](C)c1cn([C@H](CO)Cc2ccccc2)nn1)NS(=O)(=O)c1ccc(C)cc1
    /	/	-3.6	/	/	4%	4
5: COc1ccc(CCNC(=O)CN(C)S(=O)(=O)c2cccs2)cc1
    4	8%	/	-2.8%	11%	/	2
6: Cc1ccc(-c2ccc(=O)n(CC(=O)NCCCN3CCCCC3)n2)cc1
    2	2%	3.2	14µM*	3%	11%	2
7: COCc1c(C(=O)N2CCN(S(=O)(=O)c3ccccc3Cl)CC2)oc2ccccc12
    /	?	/	1.2%	0%	/	14
8: CCN(CC)C(=O)CSc1nnc(SC(C)C(=O)NC2CC2)s1 (stereo not drawn)
    5	10%	/	-3.1%	10%	/	/
9: Cc1nnc(SCC(=O)Nc2cccc([N+](=O)[O-])c2)n1CC1CCCO1 (stereo not drawn)
    3	-1%	/	/	1%[15.4 µM]	8%	13
10: CCOC(=O)N1CCN(C(=O)c2c(N)no[n+]2[O-])CC1
    /	/	0.9	/	/	12%	11
11: CC(Nc1ncnc2nc[nH]c12)c1ccccc1 (stereo not drawn)
    3	0%	2.8	0.6%	14%	0%	-6
12: CC1CC(=O)Nc2ccccc2N1S(=O)(=O)c1ccc(F)cc1F (stereo not drawn)
    3	15%	-0.6	/	-5%[15.4 µM]	19%	5
13: CN(C)c1nc(OCCOC(=O)c2ccccc2)nc(N(C)C)n1
    6	-3%	0.6	1.0%	-23%	-8%	-11
14: O=C(Nc1ccccc1C(=O)N1CCCC1)c1ccc(Cl)cc1Cl
    1	-7%	/	/	-14%[15.4 µM]	7%	-2
15: COC(=O)c1ccc(N=NN2CCOCC2)cc1
    10	10%	1.7	1.5%	?	19%	-9
16: CC(C)n1cc(C(=O)c2cc(Br)ccc2O)cc(C#N)c1=O
    -2	?	2.0	-0.2%	0%	16%	2
17: CCOc1ccc(N/C(N)=N/c2nc(CSc3nnc(C)s3)cc(=O)[nH]2)cc1
    14	22%	5.8	/	-24%[15.4 µM]	11%	0
18: Cc1ccccc1Nc1c(C)c(C)nc2ncnn12
    5	4%	-0.9	0.0%	3%[15.4 µM]	2%	28
19: Cc1cccc(CN2CCN(C(=S)Nc3ccccc3)CC2)c1
    -3	-8%	-3.5	1.0%	-61%[inhibitor]	1%	-14
20: Cc1cc(C)nc(/N=C2\NC(=O)CC(C(=O)O)N2c2cccc(Cl)c2)n1 (stereo not drawn)
    /	/	19	/	/	?	-1

The list continues:
The line under a structure holds: CtBP-E1A inh	gsp antagonist	Menin-MLL FL inh	ClpP mod	gsp ag	Sfp inh	TRPV1 PAM
21: Cc1onc(-c2c(Cl)cccc2Cl)c1COC(=O)c1ccc([N+](=O)[O-])cc1
    -11	-19%	-4.8	/	-8%[15.4 µM]	0%	5
22: COCCn1c(N)c(N(Cc2ccccc2)C(=O)c2ccc(N3CCCC3=O)cc2)c(=O)[nH]c1=O
    -12	12%	/	-3.4%	15%	/	/
23: CCn1c(SCC(=O)NCc2ccco2)nc2cccnc21
    -2	6%	0.8	0.6%	7%	-15%	1
24: O=C(Nc1cccc(F)c1)Nc1cnccn1
    3	-6%	/	-6.2%	7%	9%	28
25: CC(Sc1nc2c(c(=O)[nH]1)CCCC2)C(=O)Nc1ccc(Br)cn1 (stereo not drawn)
    0	5%	-6.8	/	0%[15.4 µM]	-13%	11
26: Cc1ccc(S(=O)(=O)Nc2ccc(C(=O)N3CCCC3)cc2)cc1
    2	6%	/	85%	10%[15.4 µM]	19%	5
27: O=C(CSC1=NS(=O)(=O)c2ccccc21)Nc1ccccc1
    0	8%	0.7	-1.2%	-2%	13µM*	-5
28: CC(NC(=O)C(C)N1C(=O)c2cccc([N+](=O)[O-])c2C1=O)c1ccccc1 (stereo not drawn)
    1	-4%	-8.3	-0.1%	-5%[15.4 µM]	23%	1
29: CC1CN(C(=O)CSc2nnc(-c3cccs3)n2N)CC(C)O1 (stereo not drawn)
    13	11%	/	-5.6%	-31%	/	-12
30: Cc1ccc(C2c3c(-c4ccccc4O)n[nH]c3C(=O)N2Cc2ccncc2)cc1 (stereo not drawn)
    -15	12%	0.7	-1.5%	18%	-3%	-6
31: Cc1ccc(C(=O)NC(NC(=O)c2ccc(C)cc2)c2cccc([N+](=O)[O-])c2)cc1
    0	10%	3.8	-1.3%	25%	3%	27
32: CCOc1ccc(C2/C(=C(/O)c3ccc4c(c3)CC(C)O4)C(=O)C(=O)N2CCCn2ccnc2)cc1OCC (stereo not drawn)
    /	-1%	/	-2.5%	13%	10%	18
33: CCOC(=O)CSc1nc2sc3c(c2c(=O)n1C1CCCCC1)CCN(C)C3
    -6	-5%	-0.4	28µM*	7%	-20%	19
34: Cc1cc(=O)oc2cc(OCC(=O)NCc3ccco3)ccc12
    -8	5%	0.4	28µM*	6%	17%	0
35: C=CCNC(=O)c1cnc2n(c1=O)CCS2
    6	-3%	2.4	-6.3%	12%	14%	5
36: COc1cc(OC)c(-c2cc(C(=O)O)ccc2OC)c(OC)c1
    -10	-5%	3.7	3.8%	-16%	-1%	-5
37: O=C(O)CN1C(=O)/C(=C/c2ccc(N3CCCCC3)o2)SC1=S
    -3	1%	?	-0.5%	21%	28µM*	0
38: CCOc1ccc(CNC(=O)c2cc3oc4ccccc4c3n2C)cc1
    -9	-2%	2.6	6.3µM*	-17%	3%	4
39: CC1CCC/C(=N\Nc2ccc(Cl)c(C(=O)O)c2)C1 (stereo not drawn)
    3	4%	5.0	-0.4%	9%[15.4 µM]	-1%	5
40: COc1ccc(N2CC(C(=O)N3CCN(C(=O)c4ccco4)CC3)CC2=O)cc1 (stereo not drawn)
    5	/	4.7	/	1%[15.4 µM]	0%	-48

One compound at a time (already shown). Order of screens: CtBP-E1A inh, gsp antagonist, Menin-MLL FL inh, ClpP mod, gsp ag, Sfp inh, TRPV1 PAM
O=C(CSC1=NS(=O)(=O)c2ccccc21)Nc1ccccc1 reads 0, 8%, 0.7, -1.2%, -2%, 13µM*, -5
COc1ccc(N2CC(C(=O)N3CCN(C(=O)c4ccco4)CC3)CC2=O)cc1 (stereo not drawn) reads 5, /, 4.7, /, 1%[15.4 µM], 0%, -48
CC1CN(C(=O)CSc2nnc(-c3cccs3)n2N)CC(C)O1 (stereo not drawn) reads 13, 11%, /, -5.6%, -31%, /, -12
CCOC(=O)CSc1nc2sc3c(c2c(=O)n1C1CCCCC1)CCN(C)C3 reads -6, -5%, -0.4, 28µM*, 7%, -20%, 19
CC(Sc1nc2c(c(=O)[nH]1)CCCC2)C(=O)Nc1ccc(Br)cn1 (stereo not drawn) reads 0, 5%, -6.8, /, 0%[15.4 µM], -13%, 11

Continuation:
The line under a structure holds: CtBP-E1A inh	gsp antagonist	Menin-MLL FL inh	ClpP mod	gsp ag	Sfp inh	TRPV1 PAM
41: Cc1cc(OC(=O)c2ccccc2Cl)c([N+](=O)[O-])c(=O)[nH]1
    0	9%	3.3	0.9%	-8%	13%	8
42: Cc1ccccc1-c1nnc(SC(C)C(=O)NC2CCCC2)o1 (stereo not drawn)
    10	-38%	/	0.6%	16%	/	-25
43: O=C(CCN1C(=O)/C(=C/c2ccc(F)cc2)SC1=S)NNC(=O)c1cccnc1
    -18	-17%	3.0	-0.8%	-25%	-13%	14
44: O=C(c1cccc(F)c1)N1CCc2ccccc2C1
    4	0%	-1.6	-1.9%	32%	0%	0
45: Cc1ccc(NCc2ccc(O)c3ncccc23)cc1C
    -80*	4%	2.3	/	-26%	8%	12
46: CCn1c(COc2ccc(=O)n(-c3ccccc3)n2)n[nH]c1=S
    -13	-2%	-1.8	/	21%	-1%	-6
47: Cc1ccc(C(=O)N/C(=C\c2ccco2)C(=O)NCCN2CCCCC2)cc1C
    3	10%	/	/	13%[15.4 µM]	16%	9
48: CON(C)S(=O)(=O)c1cccc(C(=O)Nc2ccc(S(=O)(=O)NC3=NCCCCC3)cc2)c1
    -18	0%	/	-3.2%	-11%	/	2
49: Cc1cc(C)cc(C(=O)NCC(=O)OCC(=O)N2CCCC2)c1
    2	/	/	-1.0%	?	/	/
50: Cc1csc(=O)n1CCC(=O)OCc1nnc(-c2ccccc2Cl)o1
    9	4%	/	-2.0%	3%[15.4 µM]	/	/
51: CCN(CCCNC(=O)C1CCC(=O)N1Cc1ccc(C)cc1)c1cccc(C)c1 (stereo not drawn)
    1	-1%	-2.4	-1.3%	24%	4%	0
52: O=C(NC1CCCc2ccccc21)c1cn2ccccc2n1 (stereo not drawn)
    /	-2%	-6.9	?	0%	13%	-1
53: Cc1nc(NCCc2ccccc2)c2oc3ccccc3c2n1
    -8	?	-1.8	-11%	-6%	-1%	-9
54: Cc1nn(C)c(=O)n1N(C)c1ncc(C(F)(F)F)cc1Cl
    27	15%	5.6	-8.1%	-2%[15.4 µM]	10%	-1
55: O=C(Cc1ccc(F)cc1)NC1CCSC1=O (stereo not drawn)
    -2	8%	3.8	/	?	16%	-4
56: O=C(NC1CC2CCC(C1)N2Cc1ccccc1)c1ccccc1Br (stereo not drawn)
    /	10%	0.1	0.4%	-22%	16%	7
57: CCOC(=O)c1sc(N)nc1C(C)(C)C
    -1	7%	-0.5	1.9%	-64%	-11%	-16
58: CCOc1ccc(S(=O)(=O)N(CC)CC(=O)NCc2ccncc2)cc1C
    3	4%	6.3	/	-24%	15%	-4
59: O=c1[nH]c2c(s1)C(c1ccccc1)C1C3CCC(C3)C1S2 (stereo not drawn)
    -7	-11%	5.9	-8.7%	-39%[inhibitor]	-18%	-3
60: O=C(NCc1ccccc1F)C1CCN(C(=O)c2sccc2-n2cccc2)CC1
    /	2%	0.8	-2.0%	-15%	10%	-6
